Screening results deposited in PubChem BioAssay by Broad Institute.
YB-1 expression – YB-1 expression inhibition | U2OS, qRT-PCR YB-1 vs CDIP delta delta Cp, 16 h; hits give high values; zero = DMSO, each unit about twofold | delta delta Cp (YB-1 minus CDIP) (no concentration beside the values) | hit rate 0.37% among 30,000 | AID 434959;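 active = delta delta Cp rounded down to an integer at or above 3, about 3 SD of DMSO wells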;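 note: higher means less YB-1 transcript or more CDIP transcript relative to DMSO; stock transfer was 100 nL into about 100 µL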
PD-1 reverse act – reversal of PD-1 mediated T-cell inhibition | primary human CD4 T cells, PD-L1 beads, CellTiter-Glo 96 h | activation, % (concentration not given with the values) | 29,000 tested, under 10 active | AID 2316;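 active = replicate mean of 50% or more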;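 note: 0% = median vehicle wells and 100% = positive control; 100 nL library stock added to about 50 µL; numbers are from one replicate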
MITF inhib – MITF inhibition | TRPM1 promoter luciferase, luminescence, 24 h | inhibition, % (test concentration not listed) | hit rate 0.28% among 37,000 | AID 2240;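 active = most replicates at 85% or more, or half of them and the mean; inconclusive = half reach 85% but not the mean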;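 note: human melanocyte line stably carrying TRPM1 promoter luciferase reporter; 0% = vehicle wells and 100% = a positive control; the first replicate is given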
Hedgehog inh – blocks Sonic Hedgehog signaling; Shh-LIGHT2 Gli-luciferase reporter, 30 h; inhibition, % (test concentration not listed); hit rate 2.1% among 22,000;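 active = replicate mean of 65% or more; inconclusive = mean lower but half the replicates past it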;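 note: pathway switched on by Shh-conditioned medium diluted 1 in 25 in low serum; 100 nL library stock added to about 40 µL; 0% = median of neutral wells and 100% = positive control level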
The depositor's hits bear a star; ? = inconclusive; nt = not tested or not shown. Only part of the results is shown; the hit share may differ from the screen's.

SMILES | YB-1 expression | PD-1 reverse act | MITF inhib | Hedgehog inh
O=C(Nc1cc(Cl)ccc1Cl)C1CN(S(=O)(=O)c2ccccc2)CCN1S(=O)(=O)c1ccccc1 (stereo not drawn) | nt | 2.8 | -12 | nt
Cc1noc(C)c1NC(=O)Nc1cccc2c1O[C@H](CN(C)C(=O)Nc1ccc3c(c1)OCO3)[C@H](C)CN([C@H](C)CO)C2=O | -0.12 | 0.7 | -5 | 39
Cc1ccc(S(=O)(=O)N(C)C[C@@H]2Oc3c(NC(=O)Nc4ccc(F)cc4)cccc3C(=O)N([C@@H](C)CO)C[C@@H]2C)cc1 | 0.074 | -2.8 | 30 | 108*
C[C@@H]1CN([C@@H](C)CO)C(=O)c2cccc(NC(=O)c3ccncc3)c2O[C@@H]1CN(C)Cc1ccc(Cl)c(Cl)c1 | -0.41 | -1.0 | -3 | 32
CC1CCC2C(C)(C)C(=O)CC[C@]2(C)C12Cc1c(O)cc3c(c1O2)CN(C(CCC(=O)O)C(=O)O)C3=O (stereo partly drawn) | -0.034 | 0.9 | 6 | -6
C[C@H](CO)N1C[C@H](C)[C@@H](CN(C)C(=O)Nc2ccc(C(F)(F)F)cc2)Oc2c(NC(=O)Nc3ccc(F)cc3)cccc2C1=O | -0.1 | nt | -1 | 24
Cc1ccc(Cl)cc1NC(=O)Cn1cnc2ccccc2c1=O | nt | -5.2 | -2 | nt
C[C@H]1CN([C@@H](C)CO)C(=O)c2cc(NC(=O)NC3CCCCC3)ccc2O[C@@H]1CN(C)C(=O)Nc1ccc(F)cc1 | -0.076 | -0.7 | -8 | 16
C[C@@H]1CN([C@@H](C)CO)C(=O)Cc2cc(NC(=O)Nc3ccc(C(F)(F)F)cc3)ccc2O[C@@H]1CN(C)Cc1ccc2c(c1)OCO2 | 0.055 | nt | 10 | 14
O=C(Nc1ccccc1C(=O)NC1CCCCC1)c1ccc(Cl)c(S(=O)(=O)N2CCOCC2)c1 | nt | -4.6 | -15 | nt
C[C@@H]1CN([C@H](C)CO)C(=O)c2cccc(NC(=O)c3nc4ccccc4s3)c2O[C@H]1CN(C)C(=O)Nc1ccc(C(F)(F)F)cc1 | -0.29 | nt | -5 | 7
C[C@@H]1CN([C@H](C)CO)C(=O)c2cc(NC(=O)Nc3cccc4ccccc34)ccc2O[C@@H]1CN(C)Cc1ccc(C(=O)Nc2ccccc2N)cc1 | -0.48 | -1.5 | 4 | nt
C[C@@H]1CN([C@@H](C)CO)C(=O)c2cccc(NC(=O)NC3CCCCC3)c2O[C@@H]1CN(C)S(=O)(=O)c1ccc(Cl)cc1 | -0.15 | nt | 12 | -25
C[C@@H]1CCCCO[C@@H](CN(C)Cc2ccc(C(F)(F)F)cc2)[C@@H](C)CN([C@H](C)CO)C(=O)c2cc(NC(=O)Nc3ccc(C(F)(F)F)cc3)ccc2O1 | 0.29 | 0.0 | -1 | 24
Cc1ccc(NC(=O)CNS(=O)(=O)c2ccccc2)cc1Cl | nt | -1.2 | -41 | nt
CNC[C@H]1Oc2ccc(NC(=O)NC(C)C)cc2C(=O)N([C@@H](C)CO)C[C@H]1C | -0.15 | 0.5 | 6 | -7
C[C@H]1CN([C@@H](C)CO)C(=O)Cc2cc(N(C)C)ccc2O[C@H]1CN(C)C(=O)NC1CCCCC1 | -0.2 | 2.1 | -4 | -12
C[C@H](CO)N1C[C@H](C)[C@H](CN(C)C(=O)NC2CCCCC2)Oc2c(NC(=O)c3cnccn3)cccc2C1=O | -0.53 | -2.3 | -15 | 7
C[C@@H]1CN([C@@H](C)CO)C(=O)c2cc(NC(=O)Cc3ccccc3)ccc2O[C@H]1CN(C)S(=O)(=O)c1cn(C)cn1 | 0.3 | nt | 5 | -6
O=C(COc1ccc(Cl)cc1Cl)Nc1ccc(Br)cc1C(=O)O | nt | 2.2 | -27 | nt
C[C@@H]1CN([C@H](C)CO)C(=O)c2cccc(NS(C)(=O)=O)c2O[C@H]1CN(C)S(=O)(=O)c1cccs1 | -0.16 | 3.1 | -1 | -12
C[C@@H]1CN([C@H](C)CO)C(=O)c2cccc(NC(=O)Nc3ccc(F)cc3)c2O[C@@H]1CN(C)Cc1ccc(Cl)c(Cl)c1 | -0.39 | -1.3 | 1 | 16
Cc1ccc(S(=O)(=O)Nc2ccc3c(c2)CC(=O)N([C@H](C)CO)C[C@H](C)[C@H](CN(C)Cc2ccc(-c4ccccc4)cc2)O3)cc1 | 0.027 | nt | -6 | nt
CC(C)NC(=O)N(C)C[C@@H]1Oc2c(NS(=O)(=O)c3ccccc3)cccc2C(=O)N([C@@H](C)CO)C[C@H]1C | -0.34 | nt | -6 | -10
C[C@@H]1CN([C@@H](C)CO)C(=O)c2cccc(NC(=O)c3ccncc3)c2O[C@H]1CN(C)Cc1ccc(Oc2ccccc2)cc1 | 0.62 | nt | -8 | 8
Cc1noc(C)c1S(=O)(=O)N(C)C[C@@H]1Oc2ccc(NC(=O)C3CC3)cc2CC(=O)N([C@@H](C)CO)C[C@@H]1C | 0.2 | -2.0 | -3 | -36
OCC(O)C1OC(Nc2ccc(Cl)cc2)C(O)C1O (stereo not drawn) | -0.21 | -0.3 | 2 | 1
C[C@H](CO)N1C[C@H](C)[C@H](CN(C)Cc2ccc(-c3ccccc3)cc2)Oc2ccc(N(C)C)cc2C1=O | -0.015 | -2.4 | -11 | 7
C[C@@H]1CN([C@@H](C)CO)C(=O)Cc2cc(NC(=O)Nc3cccc4ccccc34)ccc2O[C@@H]1CN(C)S(=O)(=O)c1cn(C)cn1 | 0.28 | 0.1 | 9 | -54
CCCCN(C(=O)Nc1cccc2ccccc12)C1CCS(=O)(=O)C1 (stereo not drawn) | 0.081 | 1.0 | 10 | 11

Looked up by compound from above:
SMILES | YB-1 expression | PD-1 reverse act | MITF inhib | Hedgehog inh
C[C@@H]1CN([C@H](C)CO)C(=O)c2cccc(NS(C)(=O)=O)c2O[C@H]1CN(C)S(=O)(=O)c1cccs1 | -0.16 | 3.1 | -1 | -12
C[C@@H]1CN([C@@H](C)CO)C(=O)c2cccc(NC(=O)c3ccncc3)c2O[C@H]1CN(C)Cc1ccc(Oc2ccccc2)cc1 | 0.62 | nt | -8 | 8
C[C@@H]1CN([C@@H](C)CO)C(=O)Cc2cc(NC(=O)Nc3cccc4ccccc34)ccc2O[C@@H]1CN(C)S(=O)(=O)c1cn(C)cn1 | 0.28 | 0.1 | 9 | -54
OCC(O)C1OC(Nc2ccc(Cl)cc2)C(O)C1O (stereo not drawn) | -0.21 | -0.3 | 2 | 1

(continued)
SMILES | YB-1 expression | PD-1 reverse act | MITF inhib | Hedgehog inh
CC1(C)C(=S)NC(c2ccccc2)N1O (stereo not drawn) | 0.13 | -0.3 | 4 | 0
C[C@H](CO)N1C[C@H](C)[C@H](CN(C)C(=O)NC2CCCCC2)Oc2ccc(NC(=O)Cc3ccccc3)cc2C1=O | 0.017 | -0.5 | 8 | nt
C[C@@H]1CN([C@H](C)CO)C(=O)c2cc(NC(=O)CCC(F)(F)F)ccc2O[C@H]1CN(C)C(=O)Nc1ccc2c(c1)OCO2 | 0.076 | -0.8 | -4 | 1
Cc1ccc(S(=O)(=O)Nc2cccc3c2O[C@@H](CN(C)C(=O)Nc2ccc4c(c2)OCO4)[C@H](C)CN([C@H](C)CO)C3=O)cc1 | -0.33 | 1.7 | 7 | 12
COc1ccc(NC(=O)N(C)C[C@@H]2OCCCC[C@@H](C)Oc3ccc(NS(C)(=O)=O)cc3C(=O)N([C@H](C)CO)C[C@@H]2C)cc1 | 0.036 | 1.1 | -1 | -16
O=C(Nc1cc2c(ccc3ccccc32)oc1=O)c1ccccc1 | 3.3* | -0.3 | 27 | -20
COc1ccc(NC(=O)Nc2ccc3c(c2)C(=O)N([C@@H](C)CO)C[C@H](C)[C@@H](CN(C)Cc2ccc4c(c2)OCO4)O3)cc1 | 0.1 | 0.1 | 5 | nt
COc1ccc(NC(=O)N(C)C[C@H]2Oc3ccc(NC(=O)Nc4c(C)noc4C)cc3C(=O)N([C@@H](C)CO)C[C@@H]2C)cc1 | 0.27 | nt | 2 | nt
Cc1noc(C)c1NC(=O)Nc1ccc2c(c1)C(=O)N([C@H](C)CO)C[C@H](C)[C@@H](CN(C)Cc1ccc(C(=O)O)cc1)OCCCC[C@@H](C)O2 | -0.53 | nt | -16 | nt
Cc1noc(C)c1NC(=O)N(C)C[C@@H]1Oc2ccc(N(C)C)cc2CC(=O)N([C@@H](C)CO)C[C@@H]1C | 0.12 | -0.1 | -13 | -28
CC(C)(C)NC[C@@H](O)COc1cccc2c1CCCC2=O | -0.68 | 2.1 | 1 | 31
c1ccc(Cn2ccnc2SCc2nnc(-c3ccccc3)o2)cc1 | nt | -2.0 | 3 | nt
COc1ccc(S(=O)(=O)N(C)C[C@H]2Oc3ccc(NC(=O)CCCN(C)C)cc3C(=O)N([C@@H](C)CO)C[C@H]2C)cc1 | -0.76 | nt | 12 | nt
C[C@@H]1CN([C@H](C)CO)C(=O)Cc2cc(NC(=O)Nc3cccc4ccccc34)ccc2O[C@H]1CN(C)CC1CC1 | 0.29 | nt | -24 | -26
C[C@@H]1CN([C@@H](C)CO)C(=O)c2cc(NC(=O)c3ccncc3)ccc2O[C@H]1CN(C)S(=O)(=O)c1ccc(Cl)cc1 | -0.015 | 0.4 | -6 | nt
Cc1cc(C(=O)CSc2ncn[nH]2)c(C)n1-c1cc(F)ccc1F | nt | 1.8 | -36 | nt
C[C@@H]1CN([C@@H](C)CO)C(=O)c2cc(NS(=O)(=O)c3ccc(F)cc3)ccc2O[C@@H]1CN(C)Cc1ccc(C(F)(F)F)cc1 | 0.00013 | -2.2 | 19 | 43
CC1CC(=O)C2=C(C1)C(Cl)C(O)C1(O)C2C(=O)c2cccc(O)c2C1O (stereo not drawn) | 0.84 | -0.4 | 34 | 10
CNc1nc(OCCNC(=O)Nc2ccccc2)nc(N2CCOCC2)n1 | nt | 0.1 | -8 | nt
CNC[C@@H]1Oc2ccc(NS(=O)(=O)c3c(C)noc3C)cc2C(=O)N([C@@H](C)CO)C[C@H]1C | -0.021 | 2.8 | 1 | -12
C[C@@H]1CCCCO[C@H](CN(C)Cc2ccc(Cl)c(Cl)c2)[C@@H](C)CN([C@H](C)CO)C(=O)c2cc(NC(=O)c3ccncc3)ccc2O1 | -0.38 | nt | -6 | ?
COc1ccc(NC(=O)CCN2C(=O)c3ccccc3C2=O)c([N+](=O)[O-])c1 | nt | 2.9 | -22 | nt
C[C@H]1CN([C@@H](C)CO)C(=O)Cc2cc(NC(=O)CCC(F)(F)F)ccc2O[C@@H]1CN(C)S(=O)(=O)c1ccccc1 | 0.086 | nt | -7 | 9
CNC[C@H]1Oc2ccc(NC(=O)Nc3ccc(F)cc3)cc2CC(=O)N([C@@H](C)CO)C[C@@H]1C | 0.037 | nt | -2 | -21
Cc1ccc(OCC(=O)Nc2ccc3oc(-c4ccc(F)cc4)nc3c2)c(C)c1 | nt | 0.7 | -75 | nt
C[C@H](CO)N1C[C@H](C)[C@@H](CN(C)CC2CCCCC2)Oc2ccc(NC(=O)Cc3cn(C)c4ccccc34)cc2C1=O | -0.15 | -0.2 | 18 | 3
CCOC(=O)c1ccccc1NC(=O)c1ccccc1N(C)S(C)(=O)=O | nt | 2.2 | -26 | nt
COc1cc(NC(=O)Cc2cccc3ccccc23)c(C(=O)O)cc1OC | nt | 3.5 | -4 | nt
NC(=O)N1CCc2ccccc21 | -0.18 | 1.6 | -3 | nt
C[C@H]1CN([C@@H](C)CO)C(=O)c2cc(NC(=O)Cn3cnnn3)ccc2O[C@H]1CN(C)S(=O)(=O)c1cn(C)cn1 | -0.3 | -3.1 | -5 | nt

The list goes on (2 carried over from the part before).
SMILES | YB-1 expression | PD-1 reverse act | MITF inhib | Hedgehog inh
NC(=O)N1CCc2ccccc21 | -0.18 | 1.6 | -3 | nt
C[C@H]1CN([C@@H](C)CO)C(=O)c2cc(NC(=O)Cn3cnnn3)ccc2O[C@H]1CN(C)S(=O)(=O)c1cn(C)cn1 | -0.3 | -3.1 | -5 | nt
C[C@H]1CN([C@@H](C)CO)C(=O)c2cccc(NC(=O)Nc3ccc4c(c3)OCO4)c2O[C@H]1CN(C)Cc1ccncc1 | -0.45 | 1.9 | 1 | -3
C[C@H]1CN([C@@H](C)CO)C(=O)c2cccc(NC(=O)C3CCCCC3)c2O[C@H]1CN(C)C | -0.082 | 1.0 | -4 | 5
CC1(C)NC(=O)N(CC(O)CNC23CC4CC(CC(C4)C2)C3)C1=O (stereo not drawn) | nt | 1.5 | -36 | nt
C[C@H](CO)N1C[C@H](C)[C@H](CN(C)C(=O)Nc2ccccc2)Oc2c(NS(=O)(=O)c3ccc(Cl)cc3)cccc2C1=O | 0.042 | -2.1 | 2 | -4
C[C@H]1CN([C@@H](C)CO)C(=O)Cc2cc(NS(=O)(=O)c3cn(C)cn3)ccc2O[C@H]1CN(C)S(=O)(=O)c1ccc(F)cc1 | 0.032 | 2.2 | -8 | -19
Cc1c(C)c(C)c(S(=O)(=O)NC(C)(C)C)c(C)c1C | 0.44 | -0.3 | -1 | 60
